Source: PubChem BioAssay (Fisher Drug Discovery Resource Center)
NPYLR7 ag: agonists of mosquito NPYLR7 receptor, primary screen, cell-based, Aedes aegypti, calcium fluorescence, mosquito biting behavior; AID 1259423, 2018; Aedes aegypti neuropeptide Y-like receptor 7 (NPYLR7); 270,000 tested, 0.15% active; HEK293T NPYLR7/Galpha15, GCaMP6s calcium fluorescence; activation, % at 10 µM; in the data active = activation above about 40%;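 note: 0% = vehicle and 100% = reference agonist at the receptor; some compounds past the cut are filed as inactive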
NPYLR7 ag max-min: also measured in NPYLR7 ag; calls as there; activation, %; measured here: Max-Min RFU normalised activation; some inactives read as strong as hits;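 span of the calcium signal over five minutes; 0% = vehicle and 100% = native peptide agonist; compound fluorescence can raise it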
An asterisk follows results filed as active; & = joins results of further samples.

smiles | NPYLR7 ag | NPYLR7 ag max-min
N#Cc1c(-c2ccco2)c2c([nH]c1=S)CCCC2 | 5&15 | 3&7
O=C(O)c1cc(CN2CCN(c3ncc(Cl)cn3)CC2)ccc1O | 6 | -3
CC1CCCCC12NC(=O)N(CC(=O)NCC(F)(F)F)C2=O (stereo unspecified) | 1 | 16
CC1(C(=O)NS(=O)(=O)c2ccccc2)CCN1C(=O)c1ccc(C2CCCCC2)cc1 (stereo unspecified) | 0 | -2
COc1ccc(-n2c(SCc3ccc(C(=O)O)cc3)nnc2-c2ccc([N+](=O)[O-])cc2)cc1 | 12 | 7
CCOc1ccc(S(=O)(=O)NCCCn2nc(-c3ccncc3)ccc2=O)cc1 | 16 | 10
COc1cc(CN2CCn3nc(C(=O)NCCCN4CCOCC4)cc3C2=O)cc(OC)c1 | -4 | -2
CCOC(=O)c1cc(C#N)c(C)nc1N1CCN(CCCOc2ccccc2)CC1 | 0 | -2
Cc1cc(C)c(C(=O)N(CCC(F)(F)F)CC2CC2)c(=O)[nH]1 | -3 | -2
Cc1cnc(C(NC(=O)N(C)CC2CCC2)C2CC2)s1 (stereo unspecified) | -8 | -7
Cc1cc(C)n(CC(C)n2ccnc2-c2ccc(C(=O)O)cc2)n1 (stereo unspecified) | -2 | -6
Cc1cc(C(=O)Nc2ccc3nc(N4CCN(C)CC4)sc3c2)n(C)n1 | 1 | -3
COc1cccc(-c2cccc(C)n2)c1F | -3 | -8
Cc1cc(C)c(CNC(=O)N(C)Cc2nnc3n2CCC3)c(=O)[nH]1 | -9 | -8
Cn1nccc1C(=O)N1C[C@H]2[C@H](O)[C@@H]3C[C@H](c4ccc(F)cc4)[C@@H](O3)[C@H]2C1 | 5 | 2
Cc1nc2ccc(Cl)cn2c(=O)c1NC(=O)c1ccccc1 | 3 | 1
CC(=O)N1CCN(c2ncccc2CNC(=O)Cc2c(C)[nH]c3ccccc23)CC1 | -5 | -6
CC(=O)N1CCN(CC(=O)Nc2ccc3c(c2)OCCCO3)CC1 | 12 | 2
Clc1ccc(OCCOC2OCCOC2OCCOc2ccc(Cl)cc2)cc1 (stereo unspecified) | 2 | 1
Cc1nc2c(=O)n(CC(=O)NCc3ccco3)nc(-c3ccco3)c2s1 | 1 | -1
CC(C)(C)c1[nH]ncc1CNCC1CN(C2CC2)CCO1 (stereo unspecified) | -3 | -6
CNS(=O)(=O)c1cccc(NC(=O)N(CC2CCCO2)CC2CCCO2)c1 (stereo unspecified) | 1 | -1
CCCNC(=O)c1cccc(CNCc2cc(F)ccc2F)c1 | -2 | -3
COc1ccc(Oc2cccc(CN3CCOC4(CNCCOC4)C3)c2)cc1 (stereo unspecified) | 0 | -2
CCOC(=O)C1=C(O)/C(=C\c2ccccn2)SC1=Nc1ccc(OC)cc1OC | -7 | -1
Fc1cccc(CN2CCN(Cc3ccc(-c4ccccc4)nc3)CC2)c1 | 10 | 8
Cc1sc2ncn(CC(=O)Nc3nc(-c4cc(F)ccc4F)cs3)c(=O)c2c1C | 6 | 13
FC(F)(F)c1cc(-c2ccc(Cl)cc2)n[nH]1 | 15 | 6
Nc1nc2ccc(Oc3ccc4nc(N)sc4c3)cc2s1 | -3 | -5
Cc1ccc(-c2[nH]ncc2CNC2CCN(c3ccccc3)CC2)cc1C | 3 | -1
Cc1cc(Br)c(S(=O)(=O)NCCCn2ccnc2)cc1C | -3 | 2
COc1ccc(CN2CCNCC(CC(=O)O)C2)c(OC)c1OC (stereo unspecified) | -4 | -6
C/C=C/C1OC23CCCCC2C(C#N)(C#N)C1(C#N)C(=N)O3 (stereo unspecified) | -5 | -5
COc1ccc(Nc2ncccc2C(=O)N[C@@H](C)[C@H](O)c2ccccc2)cc1 | -6 | -12
CN1CCC(Cc2noc(CCn3cccc3)n2)CC1 | 2 | -3
COC(=O)c1ccc(OCC(O)CN(C)Cc2cccnc2)cc1 (stereo unspecified) | 2 | 2
COc1cc(CN2CCn3nc(C(=O)NCCC(c4ccccc4)c4ccccc4)cc3C2=O)cc(OC)c1 | -5 | -3
CC(C)=CCN1CCc2c([nH]c3ccccc23)C1c1cccc(C)n1 (stereo unspecified) | 9 | -3
CCOC(=O)c1ccc2c(c1)nc(SCc1cccc(C#N)c1)n2CCCOC(C)C | 7 | 5
Cc1cc(C(=O)N2CSCC2C(=O)N(C)C)c(C)n1CC1CC1 (stereo unspecified) | 12 | 9
CSc1nc(-c2ccccc2)cn1CC(N)=O | 14 | 2
Cc1ccc(Cl)cc1NCc1cnc(Cl)s1 | 0 | -2
CCc1ccc(C(=O)N2CCN(c3cc(Oc4cccc(C)c4)ncn3)CC2C)cc1 (stereo unspecified) | 10 | 8
CC(=O)Nc1ccc(S(=O)(=O)Oc2ccccc2CN(Cc2ccco2)C(=O)c2cccs2)cc1 | 2 | -12
CCc1c(C)nc(-n2nc(C)cc2C)n(CC(=O)NCc2ccc(F)cc2)c1=O | 2 | -1
Cc1cc(=O)[nH]c2cc3c(cc12)C(C)(C)C(C)N3C (stereo unspecified) | -6 | -14
Cc1cc(C)cc(N2CC(C)Cn3c2nc2c3c(=O)n(CCN3CCOCC3)c(=O)n2C)c1 (stereo unspecified) | 0 | -4
COCCOCC(=O)N1CCC(n2c(=O)oc3ccc(C(C)(C)C)cc32)CC1 | -8 | 7
CCOc1ccccc1CN1CCN(Cc2cn(C)nc2-c2ccccc2)CC1CCO (stereo unspecified) | 4 | -1
CCOC(=O)C1(C)CCCN1C(=O)c1ccc(OC)cc1 (stereo unspecified) | -1 | -3

Reformatted with two lines to a compound: entries from further up.
Value order – NPYLR7 ag	NPYLR7 ag max-min
- COC(=O)c1ccc(OCC(O)CN(C)Cc2cccnc2)cc1 (stereo unspecified)
 : 2	2
- Cc1ccc(-c2[nH]ncc2CNC2CCN(c3ccccc3)CC2)cc1C
 : 3	-1
- CCOC(=O)C1(C)CCCN1C(=O)c1ccc(OC)cc1 (stereo unspecified)
 : -1	-3
- CCOC(=O)c1ccc2c(c1)nc(SCc1cccc(C#N)c1)n2CCCOC(C)C
 : 7	5
- Cc1cc(=O)[nH]c2cc3c(cc12)C(C)(C)C(C)N3C (stereo unspecified)
 : -6	-14
- CCc1ccc(C(=O)N2CCN(c3cc(Oc4cccc(C)c4)ncn3)CC2C)cc1 (stereo unspecified)
 : 10	8
- CC(=O)Nc1ccc(S(=O)(=O)Oc2ccccc2CN(Cc2ccco2)C(=O)c2cccs2)cc1
 : 2	-12

Other compounds.
smiles | NPYLR7 ag | NPYLR7 ag max-min
CCC(c1n[nH]c(=S)o1)N(C)C (stereo unspecified) | -4 | -7
CC1(C(=O)Nc2cccc3c2CCCC3)CCN1C(=O)c1ccco1 (stereo unspecified) | 2 | 1
CC(=O)NC(CC(C)C)C(=O)N1CCC(n2nc(-c3ccccc3)cc2-c2ccccc2)CC1 (stereo unspecified) | 7 | 13
CC(Sc1nnnn1-c1cccc(F)c1)C(=O)NC1CCCC(C)C1C (stereo unspecified) | 6 | 1
COc1cccc(CN2CCCC3(CCN(c4cc(C)nc(N)n4)C3)C2=O)c1OC (stereo unspecified) | 4 | 4
CC(C)OCCCNC(=O)Nc1cn(C)c2ccccc12 | 1 | -5
NC(=O)c1cccc2c1CCCN2C(=O)Cc1ccc(N2CCCC2=O)cc1 | 2 | -2
O=C(C(Cl)Cl)N(CC(=O)N1CCc2sccc2C1c1ccc(Cl)cc1Cl)CC1CCCO1 (stereo unspecified) | -8 | -1
CCOC(=O)c1c(NC(=O)C23CC4CC(CC(C4)C2)C3)sc(C(=O)Nc2ccccc2F)c1C | -3 | -4
Cc1ccc(C)c(S(=O)(=O)N2CCN(Cc3nc4ccc(Cl)cc4c(=O)[nH]3)CC2)c1 | 4 | 4
CCOC(=O)C(C#N)=Cc1cc(C)n(-c2ccc(I)cc2)c1C | -2 | -8
COc1ccc(Br)cc1CC(=O)NS(=O)(=O)c1ccc(C(C)=O)cc1 | 1 | -2
CCc1nc2c(OCC(=O)N(C)C)cccn2c1N(C)C(=O)COc1ccccc1 | 5 | -8
CSCC1CCN(C(=O)c2cc(C)ccc2-n2ccnc2)C1 (stereo unspecified) | 6 | 4
O=C(CCC(=O)N1CCc2ccccc21)N1CCN(c2ncccn2)CC1 | -7 | -11
O=C(Cn1cnc([N+](=O)[O-])c1)NN1CCN(c2ccc(F)cc2)CC1 | -3 | -8
CCOc1ccc(C(=O)N2CCN(c3ncnc4c3nnn4Cc3ccccc3)CC2)cc1 | -11 | -20
NC(=O)c1ccncc1NS(=O)(=O)c1cccc(Cl)c1 | -3 | -5
COCCN1CCN(CCS(=O)(=O)C(F)(F)F)CC1 | 6 | 6
COc1ccc2c(c1)sc(=NC(=O)CCS(=O)(=O)c1ccc(Cl)cc1)n2C | -1 | -1
COCCn1c(SCC(=O)c2ccc(Cl)cc2)nc2c([nH]c3ccccc32)c1=O | 0 | 0
CCOc1ccc(N2C(=O)CC(Sc3ncn[nH]3)C2=O)cc1 (stereo unspecified) | -4 | -11
CC(C)(C)OC(=O)NC1CCN(C(=O)C2CCCCC2C(=O)N2CCC(C#N)(c3ccccc3)CC2)C1 (stereo unspecified) | -5 | -12
O=C(Nc1ccccc1[N+](=O)[O-])c1cc2ccccc2o1 | 5 | 1
COc1ccc(N(C(C)=O)c2nc(C=C3COc4ccccc4C3=O)cs2)cc1 | 3 | 1

Single entries from the entries so far.
COC(=O)c1ccc(OCC(O)CN(C)Cc2cccnc2)cc1 (stereo unspecified) – NPYLR7 ag max-min = 2
Cc1ccc(-c2[nH]ncc2CNC2CCN(c3ccccc3)CC2)cc1C – NPYLR7 ag max-min = -1
CCC(c1n[nH]c(=S)o1)N(C)C (stereo unspecified) – NPYLR7 ag max-min = -7

(list continues)
Cc1[nH][nH]c(=O)c1N=Nc1ccc(F)cc1
  NPYLR7 ag: -4; NPYLR7 ag max-min: -9
CS(=O)(=O)c1ccc(-c2csc(NC(=O)CC3CCCC3)n2)cc1
  NPYLR7 ag: 6; NPYLR7 ag max-min: 4
CC(C)C(CNc1ncnc2sccc12)N1CCN(C)CC1 (stereo unspecified)
  NPYLR7 ag: 11; NPYLR7 ag max-min: 16
CNC(=O)[C@H]1C[C@]2(CCCCN(C)C2=O)N(C(=O)c2ccc(NC(C)=O)cc2)[C@H]1c1ccco1
  NPYLR7 ag: 4; NPYLR7 ag max-min: 8
CCn1c(=O)[nH]c(=O)c2c(N)c(C(=O)c3ccccc3OC)sc21
  NPYLR7 ag: -3; NPYLR7 ag max-min: -5
Cc1ccc(NC(=O)Cn2c(=O)n(Cc3ccccc3)c(=O)c3oc4ccccc4c32)c(C)c1
  NPYLR7 ag: 9; NPYLR7 ag max-min: 11
CCc1nnnn1-c1ccccc1NC(=O)NCc1nccn1C
  NPYLR7 ag: 4; NPYLR7 ag max-min: 1
CN(C)CCNC(=O)c1csc(COc2ccc(F)cc2F)n1
  NPYLR7 ag: 17; NPYLR7 ag max-min: 14
O=C(c1cccc2c(=O)c3ccccc3[nH]c12)N1CCCC2(CCNCC2)CC1
  NPYLR7 ag: 13; NPYLR7 ag max-min: 1
Nc1nnc(SCC(=O)c2ccc([N+](=O)[O-])cc2)s1
  NPYLR7 ag: -9; NPYLR7 ag max-min: -6

CCCc1nc2oc3ccccc3c(=O)c2c(=O)n1Cc1ccc(OC)cc1
  NPYLR7 ag: -4; NPYLR7 ag max-min: -5
COc1cccc(C(=O)N(Cc2ccc(F)cc2)Cc2ccc(OC)c(OCc3nc(CO)cs3)c2)c1
  NPYLR7 ag: 1; NPYLR7 ag max-min: 8
Cc1c2c(n3c(nc4ccccc43)c1C#N)N(CCCN(C)C)CC2
  NPYLR7 ag: -2; NPYLR7 ag max-min: -1
CSc1nnc(C(C)(C)C)c(=O)n1N=Cc1c(O)ccc2ccccc12
  NPYLR7 ag: -4; NPYLR7 ag max-min: -9
O=C1c2[nH]nc(-c3ccccc3)c2C(c2ccccc2[N+](=O)[O-])N1c1ccccc1 (stereo unspecified)
  NPYLR7 ag: -10; NPYLR7 ag max-min: -14
COc1ccccc1N1CCN(c2nc(Nc3ccc(Cl)cc3)c3nccnc3n2)CC1
  NPYLR7 ag: 13; NPYLR7 ag max-min: 11
COc1ccc(Cl)cc1-n1c(C)cn2c3c(=O)n(C(C)C(C)=O)c(=O)n(C)c3nc12 (stereo unspecified)
  NPYLR7 ag: 0; NPYLR7 ag max-min: 1
COc1ccccc1-c1csc(NC(C)=O)n1
  NPYLR7 ag: -2; NPYLR7 ag max-min: -6
COCCN1Cc2cc(OC)ccc2N(CC(O)COC)CCC1=O (stereo unspecified)
  NPYLR7 ag: 10; NPYLR7 ag max-min: 20
CCOC(=O)C1CCN(CC(=O)N2N=C(c3ccc(C)cc3)CC2c2ccccc2)CC1 (stereo unspecified)
  NPYLR7 ag: 11; NPYLR7 ag max-min: 12

Looked up one by one from the entries so far, two records:
Cc1cc(C(=O)N2CSCC2C(=O)N(C)C)c(C)n1CC1CC1 (stereo unspecified)
  NPYLR7 ag: 12; NPYLR7 ag max-min: 9
COc1ccccc1-c1csc(NC(C)=O)n1
  NPYLR7 ag: -2; NPYLR7 ag max-min: -6

Further compounds follow.
CN1CCN(S(=O)(=O)c2ccc(NCc3cccc(Cl)c3)c([N+](=O)[O-])c2)CC1
  NPYLR7 ag: 7; NPYLR7 ag max-min: 11
CCCCONc1ncnc2nonc12
  NPYLR7 ag: 9; NPYLR7 ag max-min: 6
CN(CC1COCCO1)c1cc(N2CCOCC2)nc(N)n1 (stereo unspecified)
  NPYLR7 ag: 11; NPYLR7 ag max-min: -2
CCCS(=O)(=O)N1CCN(c2nc(C)cc(Nc3ccccc3)n2)CC1
  NPYLR7 ag: 13; NPYLR7 ag max-min: 5
Cc1ccc(C2=[N+]([O-])C3(CCCCC/C3=N/NC(N)=O)N(O)C2(C)C)o1 (stereo unspecified)
  NPYLR7 ag: -12; NPYLR7 ag max-min: -22
O=c1c2c3c(sc2ncn1N=Cc1cccs1)CCCC3
  NPYLR7 ag: 1; NPYLR7 ag max-min: 0

Two of these compounds, reformatted:
Below each SMILES: NPYLR7 ag | NPYLR7 ag max-min
Cc1[nH][nH]c(=O)c1N=Nc1ccc(F)cc1
  -4 | -9
CS(=O)(=O)c1ccc(-c2csc(NC(=O)CC3CCCC3)n2)cc1
  6 | 4

The list is partial. The share of hits here may be higher or lower than overall.
